Screening results as filed in PubChem BioAssay.
MLL AF4-AF9 inh = inhibitors of human MLL-AF4/AF9 interaction; P42568; AlphaScreen, biotin-AF4 peptide binding to FLAG-AF9; inhibition, % at 10 µM; 350,000 compounds, 0.47% hits;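 active means every replicate reaching a set inhibition limit, whatever the replicate mean, cut at about 25% in these data; inconclusive means mean inhibition reaches that limit but some replicates miss it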;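 further: 0% = plate neutral control median and 100% = total signal loss; the record names both 10 and 1 µM as test concentration; the first replicate is given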
Target sequence (P42568 whole entry, looked up): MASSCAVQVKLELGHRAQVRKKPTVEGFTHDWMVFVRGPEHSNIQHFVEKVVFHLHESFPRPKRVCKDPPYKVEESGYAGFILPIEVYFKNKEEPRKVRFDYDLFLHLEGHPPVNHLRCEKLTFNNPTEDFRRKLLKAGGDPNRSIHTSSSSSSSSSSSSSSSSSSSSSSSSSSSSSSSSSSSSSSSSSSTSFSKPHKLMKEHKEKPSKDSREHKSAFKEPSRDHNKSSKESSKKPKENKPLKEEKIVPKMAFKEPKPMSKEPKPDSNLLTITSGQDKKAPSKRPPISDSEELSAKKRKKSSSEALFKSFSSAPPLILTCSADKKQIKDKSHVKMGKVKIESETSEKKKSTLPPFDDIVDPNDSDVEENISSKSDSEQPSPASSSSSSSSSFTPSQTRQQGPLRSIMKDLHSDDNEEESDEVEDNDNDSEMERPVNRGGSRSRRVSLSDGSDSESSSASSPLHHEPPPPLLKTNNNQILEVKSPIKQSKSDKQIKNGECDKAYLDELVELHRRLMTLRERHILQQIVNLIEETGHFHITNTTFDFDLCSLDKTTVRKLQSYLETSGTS
Vif A3G = HIV-1 Vif–A3G interaction blockers – biochemical, TR-FRET, GST-Vif 1-94, biotin-A3G peptide, dose response retest, primary screen (AID 1117319); TR-FRET GST-Vif / biotin-A3G peptide binding; higher % means a stronger effect; test concentration not given here; strong numbers were not always called active; inhibition, %; hits with a dose series show IC50 in µM; 260,000 compounds, 0.57% hits;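 active means above the screen mean plus three standard deviations and confirmed in dose response; inconclusive means results disagree or hit not tested in dose response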;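 further: Vif residues 1-94 fused to GST binding biotinylated APOBEC3G peptide 110-148; 0% = full assay without inhibitor and 100% = GST in place of GST-Vif; retest series ran down from 100 µM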
Ecoli rRNA inh = inhibitors of bacterial rRNA selective over humanized ribosomes; E. coli WT GFP vs humanized-ribosome RFP mutants, fluorescence, 24 h; active compounds read low; DMSO median 0, no signal -100; GFP signal change (wild-type ribosome), % (test concentration not listed); 350,000 compounds, 1.6% hits; AID 720706;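 active means significant combined selectivity score with lowered wild-type GFP, culture density cut under 30%, mutant RFP and density less affected; inactive means any of these conditions unmet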; further: one replicate is shown; some compounds called inactive have numbers as strong as hits
E coli growth = blocks Escherichia coli growth; 330,000 compounds, 0.21% hits; OD600, 23 h; active compounds read low; OD600 absorbance (test concentration not listed);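 active means OD600 absorbance below the run mean of sample wells minus 3.6 SD, in any replicate, cut at about 0.56 in these data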;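 further: stock transfer was 300 nL into about 60 µL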
HNF4A DNA FP = change in binding of human HNF4 alpha to DNA; HNF4a-FITC DNA binding, fluorescence polarization, 1 h; activity change, % at 10 µM; 360,000 compounds, 0.3% hits; in the data active means activity change above about 30%, passing the limit was not always enough;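 further: controls were the assay level and a saturating level of protein; the project sought stronger binding though the title names inhibitors; some compounds called inactive have numbers as strong as hits; positive values seem to mean higher polarization but the record does not say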
Target sequence (P41235 whole entry, looked up): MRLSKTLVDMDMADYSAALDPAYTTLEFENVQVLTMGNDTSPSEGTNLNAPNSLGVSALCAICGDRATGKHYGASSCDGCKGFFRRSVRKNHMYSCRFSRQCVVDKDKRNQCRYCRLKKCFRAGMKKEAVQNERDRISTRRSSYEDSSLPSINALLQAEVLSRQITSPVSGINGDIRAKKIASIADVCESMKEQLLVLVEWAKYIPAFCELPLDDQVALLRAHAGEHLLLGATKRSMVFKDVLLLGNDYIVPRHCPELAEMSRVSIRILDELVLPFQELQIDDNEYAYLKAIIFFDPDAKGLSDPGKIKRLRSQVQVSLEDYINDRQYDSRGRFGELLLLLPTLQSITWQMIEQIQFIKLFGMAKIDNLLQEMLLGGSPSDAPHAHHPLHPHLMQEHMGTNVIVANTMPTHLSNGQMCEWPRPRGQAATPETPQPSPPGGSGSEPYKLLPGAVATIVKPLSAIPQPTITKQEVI
ALR H2O2 inh = blocks human ALR sulfhydryl oxidase activity. purified ALR, DTT oxidation, H2O2 HRP-luminol luminescence. inhibition, % (test concentration not listed). AID 485317. 290,000 compounds, 3.8% hits;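 active means mean and each replicate at 75% or more; inconclusive means only one of the two met; inactive means neither met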;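 further: stock transfer was 7.5 nL into about 7.5 µL; 0% = neutral wells and 100% = wells with inactivated enzyme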
FGF22 binding = binders of recombinant human FGF22 by thermal shift | calls only at 9.99 µM | Q9HCT0 | AID 651658 | SYPRO orange fluorescence; percent of sucrose octasulfate shift, DMSO zero | 340,000 compounds, 1.5% hits;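 active means melting point raised past a set limit in the mean and every replicate; inconclusive means no clear call; three in four hits are not shown here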
Ecoli rRNA inh OD600 = also measured in Ecoli rRNA inh; calls as there; OD600 change, %; measured here: OD600 growth;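 optical density of the mix in the first replicate; 0 = DMSO median and -100 = no signal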
Ecoli rRNA inh RFP = second read-out of Ecoli rRNA inh, no call of its own (marks repeat the call); RFP signal change, %; measured here: RFP humanized mutant strains;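 first replicate; 0 = DMSO median and -100 = no signal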
Starred values were filed as active, the others as inactive; i = inactive; ? = inconclusive; nt = not tested or not shown; & = joins results of further samples.

compound	FGF22 binding	Ecoli rRNA inh	E coli growth	Vif A3G	Ecoli rRNA inh OD600	Ecoli rRNA inh RFP	MLL AF4-AF9 inh	ALR H2O2 inh	HNF4A DNA FP
CC1(C)Cc2c(sc(NC(=O)C(C)(C)C)c2C#N)C(C)(C)N1	nt	nt	0.7	-1%	nt	nt	nt	1	-1.7
O=C(NCC1CCCN(C(=O)c2cccc(C(F)(F)F)c2)C1)c1ccc(F)cc1 (centres undefined)	i	0	0.71	nt	-4	-1.0	-3.7	-7	3.2
O=C(Nc1nc2ccccc2[nH]1)c1cccc(Br)c1	i	6	0.64	nt	6	-0.3	-3.0	-2	3.5
N/C(=N\OC(=O)CC1CCCCC1)c1cccc(Br)c1	i	11	0.69	nt	8	0.4	-1.2	4	0.7
Cc1ccc(S(=O)(=O)Nc2cccc3c2O[C@@H](CN(C)Cc2ccc(C(=O)O)cc2)[C@H](C)CN([C@H](C)CO)C3=O)cc1	i	3	nt	nt	3	-1.1	1.4	nt	nt
COc1ccc(CN(C)C[C@@H]2Oc3ccc(NC(=O)CCN4CCOCC4)cc3C(=O)N([C@@H](C)CO)C[C@H]2C)cc1	i	-4	nt	nt	0	-2.2	-0.8	nt	nt
CO[C@H]1CN(C)C(=O)c2cc(NC(=O)c3ccccc3)ccc2OC[C@H](C)N(C)C[C@@H]1C	i	5	nt	nt	11	0.3	-2.4	nt	nt
Cc1cc(S(=O)(=O)N2CCN(Cc3ccccc3)CC2)c(C)s1	i	-19	0.71	-6%	-52	-15	-4.2	37	3.7
CN1CCN(c2ccc(Cl)cc2NC(=O)c2nn(-c3ccccc3)c(=O)c3ccccc23)CC1	nt	nt	0.7	9%	nt	nt	nt	nt	2.0
C[C@H](CO)N1C[C@H](C)[C@H](CN(C)S(=O)(=O)c2cn(C)cn2)Oc2c(NC(=O)Nc3ccc(C(F)(F)F)cc3)cccc2C1=O	i	-3	nt	nt	-14	2.0	-2.1	nt	nt
O=C(COc1ccccc1)Nc1ccc(S(=O)(=O)Nc2ncccn2)cc1	i	17	0.68	32%	13	0.9	-1.8	-4	-0.3
Cc1ccc(NC(=O)C2CC(=O)Nc3nncn32)cc1 (centres undefined)	i	7	0.67	-1%	8	1.2	0.5	-6	0.2
CCC(C)C(NC(=O)C1CCC(=O)N1C(=O)OCc1ccccc1)C(=O)NC(C(=O)N1CCCC1C(N)=O)C(C)CC (centres undefined)	i	7	0.67	nt	2	-2.4	0.1	nt	1.6
NC(=O)Nc1ccc(C(=O)OCC(=O)N(Cc2ccccc2)C2CCS(=O)(=O)C2)cc1 (centres undefined)	i	1	0.65	1%	4	-1.7	-1.4	nt	-1.9
CN(C)CCCCCN(C)Cc1cc2ccccc2o1	nt	27	0.65	11%	31	1.2	2.2	-3	-1.1
COc1cccc(CNC(=O)[C@H]2[C@H](CO)[C@H]3Cn4c(ccc(-c5ccncc5)c4=O)[C@@H]2N3C(C)=O)c1	i	6	nt	nt	8	-1.1	6.3	nt	nt
COc1ccccc1NC(=O)CSc1nnc(C2CCCCC2)o1	nt	nt	0.7	-6%	nt	nt	nt	3	-0.5
Cc1ccc(C(C)NC(=O)C2CCCC2)c(C)c1 (centres undefined)	i	3	0.65	nt	7	1.8	-2.1	nt	2.8
COc1ccccc1N1CCN(CCOc2c(OC)cccc2OC)CC1	nt	nt	0.66	8%	nt	nt	nt	-2	-0.9
COC(=O)c1ccc(-c2cc3onc(-c4ccccc4)c3c(=O)n2C)cc1	i	-13	0.68	nt	-11	-8.3	5.0	-1	5.8
Cn1c2c(c(=O)n(C)c1=O)CS(=O)c1ccccc1N2 (centres undefined)	i	1	nt	nt	-17	-5.0	-6.2	nt	-1.6
COCCNc1ncnc2c1ncn2[C@H]1CN(Cc2cc(OC)c(OC)c(OC)c2)C[C@@H](CO)O1	i	15	nt	nt	38	1.7	-0.9	nt	1.1
CCOc1ncccc1C(=O)Nc1nnc(C(CC)CC)s1	i	-12	0.66	7%	-13	-0.7	-2.5	-12	2.6
Cc1ccc(C(=O)O)cc1N=Cc1cc(Br)cc(Br)c1O	nt	nt	0.68	nt	nt	nt	nt	28	2.0
COc1cc(C(=O)N2CCC(C(=O)Nc3cccc(C(C)=O)c3)CC2)cc(OC)c1OC	nt	nt	0.69	1%	nt	nt	nt	nt	-4.2
CN(C)c1cccc(C(=O)NNC(=O)NC2CCCCC2)c1	i	6	0.71	13%	4	-5.2	-3.8	13	4.2
Cc1ccc(Nc2nnc(SCC(=O)NC(Cc3c[nH]c4ccccc34)C(=O)O)s2)cc1 (centres undefined)	nt	5	0.7	13%	7	2.9	-2.0	94*	-0.7
N#CC1C(=O)NC(=O)C(C#N)C12CCCC2 (centres undefined)	i	8	nt	nt	13	-0.8	0.3	nt	5.5
Cc1cc(C)c(N(CC(=O)NCc2ccccc2)C(=O)c2csnn2)c(C)c1	i	nt	0.67	nt	nt	nt	-3.2	-2	-2.0
Cc1ccccc1NC(=O)CSc1n[nH]c(-c2ccco2)n1	i	5	0.71	10%	-3	-1.1	-0.7	3	-0.6
O=C(NCCCn1ccnc1)NC(C(F)(F)F)C(F)(F)F	nt	nt	0.64	6%	nt	nt	nt	-25	-1.2
Cn1c(SCC(=O)NC(C)(C)C)nnc1-c1cnccn1	nt	nt	0.67	-2%	nt	nt	nt	-4	0.5
C/C(=N/O)c1no[n+]([O-])c1/C(C)=N\O	i	12	nt	-3%	6	-1.0	nt	nt	0.5
CCC(=O)N1CCc2cc(S(=O)(=O)N(C)c3ccc(OC)cc3OC)ccc21	i	1	0.67	-5%	2	-1.4	3.5	-31	0.3
O=C(N/N=C/c1ccc(COc2ccc(Br)cc2)o1)c1ccc2c(c1)OCO2	i	9	nt	-3%	13	1.5	-2.7	nt	2.5
CSc1nc2nc(-c3ccc(F)cc3)c(CCN3CCN(C)CC3)cn2n1	i	-1	0.72	1%	-1	1.7	3.1	-23	-5.5
O=C(NCCN1CCOCC1)c1ccc2ccccc2c1	nt	nt	0.7	?	nt	nt	nt	13	-0.1
CC(C)C#Cc1cnc2c(c1)C(=O)N([C@@H](C)CO)C[C@@H](C)[C@@H](CN(C)C(=O)Cc1ccncc1)O2	i	1	nt	nt	-5	0.4	1.8	nt	nt
O=C(C[C@@H]1CC[C@@H]2[C@H](COC[C@H](O)CN2C(=O)Nc2ccc(Cl)c(Cl)c2)O1)NCc1ccc(Cl)cc1	i	-61	nt	nt	-77	-19	-2.2	nt	nt
CSc1ccccc1NC(=O)CN(C)CC(=O)NCc1ccccc1	i	3	0.71	-11%	6	3.9	-2.2	4	-3.3
O=C(C(=O)N1CCC(CNS(=O)(=O)c2ccc(C(F)(F)F)cc2)CC1)c1cccs1	i	-4	nt	nt	-16	-0.8	-2.5	nt	nt
COC(=O)c1c(NC(=O)c2ccco2)sc2c1CCN(C(C)=O)C2	i	-14	0.65	-2%	-12	0.6	0.6	5	0.0
Cc1ccc(N2CN(Cc3cccnc3)CNC2=S)cc1	nt	nt	0.62	18%	nt	nt	nt	-3	-3.5
O=C(NC1CC1)C1CCN(C2CCN(C(=O)/C=C/c3cccs3)CC2)CC1	i	12	0.67	nt	7	-2.1	-2.3	-13	2.2
CCOC(=O)C(NC(=O)CC)(Nc1sc2c(c1C(=O)OC)CCN(C)C2)C(F)(F)F (centres undefined)	nt	nt	0.62	5%&-6%	nt	nt	nt	-6	1.1
O=C(NCCN1CCOCC1)c1cc(-c2ccc(Br)cc2)on1	nt	nt	0.65	65%	nt	nt	nt	-5	-2.7
O=C(CSc1ccccc1)NN1C(=O)c2ccccc2C1=O	i	9	0.72	nt	11	3.3	0.1	23	1.9
O=C(c1ccc(F)cc1)N1CCN(C2CCC(c3ccccc3)CC2)CC1 (centres undefined)	i	8	0.71	?	8	-2.0	1.6	-1	-3.1
COc1ccc(C2C3=C(CC(C)(C)CC3=O)Nc3c2c(=O)[nH]c(=O)n3Cc2ccccc2)cc1 (centres undefined)	nt	nt	0.72	-4%	nt	nt	nt	73	3.3
N#CCN(C(=O)COC(=O)C1CC2CCCC(C1)C2=O)c1ccccc1 (centres undefined)	i	4	0.69	-4%	9	-1.2	-0.2	-1	-0.4
CC1(C)[N+]([O-])=C2C(=[N+]([O-])C1(C)C)c1ccccc1/C2=N\O	nt	nt	nt	6%	nt	nt	nt	-2	1.4
O=C(CCC(=O)N1CCOc2ccccc21)N1CCCCC1	i	8	0.72	nt	16	-1.4	-6.5	-4	0.8
CCCCN(C(=O)C1=COCCO1)c1c(N)n(CCCC)c(=O)[nH]c1=O	i	11	0.67	-2%	11	-0.7	-13	-2	-2.7
Clc1ccccc1-c1ccc2ncnc(NCc3cccnc3)c2c1	i	-43	0.68	nt	-70	-12	-4.6	-1	4.4
NC(CCc1ccccc1)c1csc(NC(=O)Nc2cccc(Cl)c2)n1 (centres undefined)	i	-62	nt	nt	-84	-19	7.5	nt	0.7
Cc1ccccc1C(=O)N1CCN(c2ccc(NC(=O)c3ccco3)cc2Cl)CC1	nt	nt	0.7	3%	nt	nt	nt	2	-1.4
CC[C@]1(c2cccc(C)c2)C(=O)N(C(=O)OC)N1C(=O)OC	i	9	0.71	nt	1	-12	-0.6	5	-0.7
O=C(CSc1nnnn1C1CCCC1)NCCc1ccccc1	i	-6	0.66	0%	-6	-9.6	-7.3	-9	-1.2
N#CCCn1cc(/C=N/O)c(-c2ccccc2)n1	i	0	nt	2%	4	-6.6	6.6	22	0.5
O=C(NC(=C(Cl)Cl)S(=O)(=O)c1ccc(Cl)cc1)c1ccccc1	i	-12	0.7	?	-5	5.7	7.1	0	3.1
CCCCC(=O)N1C/C=C\C(c2ccc(OC)cc2)N(Cc2ccc(F)cc2)C(=O)C1 (centres undefined)	i	5	nt	-3%	-13	3.4	-0.8	nt	0.2
CCc1ccc2[nH]c(C)c(CN3CCCCCC3)c(=O)c2c1	i	10	0.6	-3%	14	0.6	11	-6	-5.5
CCOc1ccc(NC(=O)CN(C)CC(=O)Nc2cccc(Cl)c2C)cc1OCC	nt	nt	0.72	-12%	nt	nt	nt	-7	0.2

4 successive entries out of the list so far, quoted:
compound	FGF22 binding	Ecoli rRNA inh	E coli growth	Vif A3G	Ecoli rRNA inh OD600	Ecoli rRNA inh RFP	MLL AF4-AF9 inh	ALR H2O2 inh	HNF4A DNA FP
O=C(NC(=C(Cl)Cl)S(=O)(=O)c1ccc(Cl)cc1)c1ccccc1	i	-12	0.7	?	-5	5.7	7.1	0	3.1
CCCCC(=O)N1C/C=C\C(c2ccc(OC)cc2)N(Cc2ccc(F)cc2)C(=O)C1 (centres undefined)	i	5	nt	-3%	-13	3.4	-0.8	nt	0.2
CCc1ccc2[nH]c(C)c(CN3CCCCCC3)c(=O)c2c1	i	10	0.6	-3%	14	0.6	11	-6	-5.5
CCOc1ccc(NC(=O)CN(C)CC(=O)Nc2cccc(Cl)c2C)cc1OCC	nt	nt	0.72	-12%	nt	nt	nt	-7	0.2

A portion of the library; rates above refer to the full screens.
